# KCNQ2 inh – KCNQ2 potassium channel inhibitors, primary screen, cell-based, CHO-K1, FluxOR thallium flux, B-score (AID 2156) | O88943 | 20 min; hits give low values; only compounds with negative scores are shown here; some inactives read as strong as hits | B-score at 10 µM | 1.1% of 310,000 active;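 active means fluorescence ratio B-score at most minus 3 library SDs, with starting brightness B-score within 2 library SDs, cut at about -5.5 in these data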
# Target sequence (O88943 whole entry, looked up): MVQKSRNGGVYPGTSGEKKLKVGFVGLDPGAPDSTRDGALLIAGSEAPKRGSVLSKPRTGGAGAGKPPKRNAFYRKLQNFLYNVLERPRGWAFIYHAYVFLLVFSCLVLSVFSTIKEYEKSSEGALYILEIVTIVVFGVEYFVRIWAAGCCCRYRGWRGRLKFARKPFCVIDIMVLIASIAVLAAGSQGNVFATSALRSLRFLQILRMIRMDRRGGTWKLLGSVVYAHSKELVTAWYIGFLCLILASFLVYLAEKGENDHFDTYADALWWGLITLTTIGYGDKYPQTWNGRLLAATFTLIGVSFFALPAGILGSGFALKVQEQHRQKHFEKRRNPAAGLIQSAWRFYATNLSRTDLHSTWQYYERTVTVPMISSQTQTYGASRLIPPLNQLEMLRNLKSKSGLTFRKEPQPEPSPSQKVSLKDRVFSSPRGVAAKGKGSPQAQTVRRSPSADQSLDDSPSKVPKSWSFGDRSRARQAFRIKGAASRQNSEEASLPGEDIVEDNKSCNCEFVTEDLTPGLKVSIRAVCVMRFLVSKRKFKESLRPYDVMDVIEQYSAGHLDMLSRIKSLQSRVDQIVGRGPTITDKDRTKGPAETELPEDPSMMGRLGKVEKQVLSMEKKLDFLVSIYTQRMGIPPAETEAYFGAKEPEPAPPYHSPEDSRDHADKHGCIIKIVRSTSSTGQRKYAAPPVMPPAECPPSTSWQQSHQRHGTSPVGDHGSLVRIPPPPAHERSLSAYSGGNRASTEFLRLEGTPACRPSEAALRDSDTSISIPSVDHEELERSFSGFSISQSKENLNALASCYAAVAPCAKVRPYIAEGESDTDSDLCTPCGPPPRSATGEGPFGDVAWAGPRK
# KCNQ2 inh baseline – further read-out of KCNQ2 inh, marked with its call; B-score; measured here: initial fluorescence intensity artifact check;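 brightness before thallium and not channel activity; 0 = typical well and far values either way flag optical interference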
# Starred values were filed as active, the others as inactive; i = inactive. Not all compounds are listed; the hit share may differ from the screen's.
SMILES,KCNQ2 inh,KCNQ2 inh baseline
COc1cc(-c2nnc(SCC(=O)Nc3ccc4c(c3)OCCO4)o2)cc(OC)c1OC,i,-1.6
CCC(C)NC(=O)COc1ccc(Br)c(C)c1 (configuration not stated),i,1.5
COCCCn1c(=O)c2sccc2n(Cc2cccc(F)c2)c1=O,i,0.55
O=C(CSc1ncn[nH]1)Nc1ccnc2ccccc12,i,1.4
CC1Sc2ccc(S(=O)(=O)CCC(=O)Nc3cc(F)ccc3F)cc2NC1=O (configuration not stated),i,2.2
CC(C)CC(=O)NC(NC(=S)Nc1ccccc1)C(Cl)(Cl)Cl (configuration not stated),i,0.83
CC(=O)C1=C(c2ccccc2)NC(=O)NC1c1ccccc1OCC#N (configuration not stated),i,-0.21
COc1cc(S(=O)(=O)N2CCCCCC2)ccc1Cl,i,0.17
Cc1c(NC(=O)C(C)Oc2ccccc2F)c(=O)n(-c2ccccc2)n1C (configuration not stated),i,1.9
Cc1ccc(-n2c(SCC(=O)Nc3cc(C)on3)nc3c([nH]c4ccccc43)c2=O)cc1,i,-0.26
Cc1cc(C)c(S(=O)(=O)N(CC(=O)N2CCOCC2)C2CCCCC2)c(C)c1,i,0.56
O=C(Nc1nncs1)c1cccc(S(=O)(=O)N2CCCC2)c1,i,-0.33
NC(C(=O)O)C(c1ccccc1)C(F)F (configuration not stated),i,-1.4
COc1ccc(OC)c(/C=N/NC(=O)CC2C(=O)NN=C2C)c1 (configuration not stated),i,0.03
COc1ccc(-n2c(O)c(/C=N/NS(=O)(=O)c3cc(C)ccc3C)c3ccccc3c2=O)cc1OC,i,18
Cc1nc(C(F)(F)F)c(C(=O)N/N=C(\N)c2ccccn2)s1,i,-0.18
NC(=O)NNc1cccc(Cl)n1,i,0.98
O=C(CCN1C(=O)C2C3C=CC(C3)C2C1=O)N1CCN(c2cccc(Cl)c2)CC1 (configuration not stated),i,-0.14
O=C(NCC(c1ccco1)N1CCc2ccccc2C1)c1cccc([N+](=O)[O-])c1 (configuration not stated),i,-1.1
CCOC(=O)c1cc2c(ccn2C)n1CC(=O)N(C)C,i,-0.17
Cc1cccc(NC(=O)Cn2cnc3c(oc4nc5c(cc43)COC(C)(C)C5)c2=O)c1,i,0.33
Cc1ccc(NC(=O)/C(=C\c2cccc(Br)c2)NC(=O)c2ccco2)cc1,i,-1.3
COc1ccc(Br)cc1CNc1ccc(N2CCOCC2)cc1,i,0.89
O=C(Nc1ccc2c(c1)OCCO2)c1cccc(S(=O)(=O)N2CCOCC2)c1,i,-0.28
Cc1cc2c(cc1C)CN(c1ccccc1)C2,i,1.4
# Remaining list, next part
SMILES,KCNQ2 inh,KCNQ2 inh baseline
COC(=O)CSc1nnc(Cc2cc(=O)[nH]c(=O)[nH]2)n1-c1cccc(OC)c1,i,-0.54
COc1ccc(NC(=O)COc2nsnc2N2CCOCC2)cc1,i,1.2
COc1cc([N+](=O)[O-])cc(/C=N/NC(=O)c2cccnc2)c1O,i,0.68
Cc1noc(NS(=O)(=O)c2ccc(NC(=O)C(Cl)(Cl)Cl)cc2)c1C,i,2.8
CC(C(=O)N(C)C1CCCCC1)N1CCC(C(N)=O)CC1 (configuration not stated),i,0.49
COc1ccccc1NC(=O)Nc1ccccc1N1CCOCC1,i,2.8
CCc1cc(-c2n[nH]c(C)c2-c2ccccc2Cl)c(O)cc1OC,i,1.8
COc1ccc(NC(=O)C2CCN(S(C)(=O)=O)CC2)cc1OC,i,-0.43
Cc1ccc(NC(=O)c2c(C(F)(F)F)nn(C)c2SCc2ccc(Cl)cc2)cc1C,i,-0.14
O=C(CSc1nn(-c2ccc(Cl)cc2)c(=S)s1)NCC1CCCO1 (configuration not stated),i,1.5
Cc1ccc(CS(=O)(=O)Cc2ccc(C(=O)NCCc3ccccc3)o2)cc1,i,-0.49
O=C(c1ccc(N2CCOCC2)nc1)N1CCOCC1,i,-2
COc1ccc(-n2c(C)cc(C(=O)COC(=O)Cc3n[nH]c(=O)c4ccccc34)c2C)cc1,i,0.36
Cc1nc(C(=O)NC2CC2)sc1C1(C)CC(c2ccccc2)=NO1 (configuration not stated),i,1.9
O=C1CCCC2=C1C1(CCCC1)N=C(Nc1nc3ccccc3s1)N2,i,-1.6
CC(C)Cn1c(O)c(/C=C2\C=NN=C2c2ccccc2)sc1=S,i,-0.25
CCOC(=O)Cn1c(=O)c2c(nc3n2CCN3Cc2ccccc2)n(C)c1=O,i,-0.35
CCOc1nc(N=C(N)N)nc2c(C)cccc12,i,-1.8
CCOc1ccccc1OC(=O)c1ccco1,i,1.7
CC(O)(CS(=O)(=O)Cc1ccccc1)C(=O)Nc1cccc(C(F)(F)F)c1 (configuration not stated),i,0.05
Cc1ccc2oc(-c3cccc(NC(=O)c4cc(-n5cnnc5)ccc4Cl)c3)nc2c1,i,0.45
CCN(CC)CCn1c2ccccc2c2nc3ccc([N+](=O)[O-])cc3cc21,i,-1.3
COc1ccc(OC)c(N(CC(=O)O)S(=O)(=O)c2ccc(OC)c(OC)c2)c1,i,-1.2
Cc1ccccc1-c1nnc(SCC(=O)Nc2ccc3c(c2)OCCO3)n1N,i,-0.7
Cc1cc(C(=O)O)ccc1-c1ccc(/C=N/n2cnnc2)o1,i,2

# Arranged by SMILES length (ascending): part of the list above
SMILES,KCNQ2 inh,KCNQ2 inh baseline
CCC(C)NC(=O)COc1ccc(Br)c(C)c1 (configuration not stated),i,1.5
COc1cc(S(=O)(=O)N2CCCCCC2)ccc1Cl,i,0.17
CCN(CC)CCn1c2ccccc2c2nc3ccc([N+](=O)[O-])cc3cc21,i,-1.3
O=C(CCN1C(=O)C2C3C=CC(C3)C2C1=O)N1CCN(c2cccc(Cl)c2)CC1 (configuration not stated),i,-0.14
COc1ccc(-n2c(O)c(/C=N/NS(=O)(=O)c3cc(C)ccc3C)c3ccccc3c2=O)cc1OC,i,18

# Following part.
SMILES,KCNQ2 inh,KCNQ2 inh baseline
CCOc1ccc(OCC)c(NC(=O)CSc2nc3cccnc3n2C)c1,i,-0.47
O=C(OCn1ncc(Br)c(Br)c1=O)c1ccccc1Cl,i,-0.28
CCN(C(=O)COc1ncnc2sccc12)c1ccccc1,i,-0.03
CCn1c(SCC(N)=O)nc2c1c(=O)n(C)c(=O)n2C,i,-0.33
O=C1OCCC1N1C(=O)c2ccccc2S1(=O)=O (configuration not stated),i,-1.2
Cc1nnc(SCc2c(Cl)cccc2Cl)s1,i,-0.36
CCCc1nnc(SCC(=O)N2CCOCC2)n1C,i,0.24
Cc1nc(NC(=O)c2cc3ccccc3o2)sc1C,i,1.6
Cc1ccc2cc3c(nc2c1)OCC3,i,1.1
Cc1ccc(-c2cn3c(n2)SCC3)cc1,i,-0.13
CCOc1ccc(NS(=O)(=O)c2cc(C(=O)N3CC(C)OC(C)C3)ccc2C)cc1 (configuration not stated),i,-0.74
COc1cc(C(C(=O)NC2CCCCC2)N(CCN2CCOCC2)C(=O)C2COc3ccccc3O2)cc(OC)c1OC (configuration not stated),i,-0.81
CCC1S/C(=N/N=C/c2ccco2)NC1=O (configuration not stated),i,1
CCc1cccc(NC(=O)CCC(=O)N2CCSc3ccccc32)c1,i,0.79
O=S(=O)(Nc1nc2ccccc2[nH]1)c1ccccc1,i,-0.7
CCOc1ccc(/C(O)=C2/C(=O)C(=O)N(c3ncccn3)C2c2ccc(Cl)cc2)cc1 (configuration not stated),i,0.46
CC(=O)NCCC(=O)Nc1cc(S(=O)(=O)N2CCCCC2)ccc1Oc1cccc(C)c1,i,-1.5
Cc1nc(N)ncc1Sc1ccc(Cl)cc1,i,-0.07
Cc1ccc(-c2nnc(CN3CCCCC3C)o2)cc1 (configuration not stated),i,0.68
CCN(CCNC(=O)CS(=O)(=O)Cc1nc(-c2cccc(OC)c2)oc1C)c1ccccc1,i,0.14
COCCNc1nc(-c2cc(C)n(CCc3ccc(OC)cc3)c2C)cs1,i,-0.49
O=C(NCCc1c[nH]c2ccccc12)Nc1cccc2ccccc12,i,-1.9
CC(C)N(C(=O)NC(=O)NCC1CCCO1)S(C)(=O)=O (configuration not stated),i,0.16
COc1cccc(-n2c(CN3CCN(c4ccc(C)cc4)C(C)C3)nc3ccc([N+](=O)[O-])cc3c2=O)c1 (configuration not stated),i,-1.9
COc1ccc(OCCCC(=O)Nc2nnc(C3CCCO3)s2)cc1 (configuration not stated),i,-0.03
# Next section.
SMILES,KCNQ2 inh,KCNQ2 inh baseline
CC1=NN(c2cccc([N+](=O)[O-])c2)C(=O)C1,i,-0.35
Cc1cc(-c2ccc(C)c(S(=O)(=O)NC(C)Cc3ccco3)c2)on1 (configuration not stated),i,0.54
COc1ccc(Nc2ccc(S(=O)(=O)N3CCCCC3)cc2[N+](=O)[O-])cc1,i,1.1
C=C(C)C(=O)Nc1ccc(OC(F)(F)C(F)F)c(NC(=O)C(=C)C)c1,i,0.08
Cc1ccccc1OCC(=O)NNC(=O)CCN1C(=O)c2ccccc2C1=O,i,-0.17
CCn1c(SCC(=O)Nc2ccc3c(c2)OCO3)nc2ccccc21,i,0.01
COc1ccc(C2/C(=C(/O)c3ccccc3)C(=O)C(=O)N2CCO)cc1 (configuration not stated),i,1.1
CC(C)(C)NC(=O)N1CCn2cccc2C1c1ccccc1F (configuration not stated),i,1.3
Cc1cc(C(=O)N2CCCC(CNS(=O)(=O)c3cccs3)C2)nn1C (configuration not stated),i,0.21
O=C(NNC(=O)C1CC=CCC1)c1ccccc1O (configuration not stated),i,1.7
CCSC(=Nc1ccccc1)Nc1ccccc1,i,3.8
Oc1c(Br)cc(Br)cc1CNc1nccs1,i,-0.44
Cc1ccccc1C(=O)c1ccc2c(c1)n(C)c(=O)n2C,i,0.01
COc1cccc(C(=O)Nc2ccc(NC(C)=O)cc2)c1,i,-1.6
O=C(CN1C(=O)S/C(=C\c2ccc(F)cc2)C1=O)NC1C=CS(=O)(=O)C1 (configuration not stated),i,-0.01
Cc1ccc(NC(=O)COc2cccnc2[N+](=O)[O-])cc1S(=O)(=O)N1CCCCC1,i,-0.01
COc1cccc(C(c2nnnn2Cc2ccccc2)N2CCN(C(=O)c3ccco3)CC2)c1OC (configuration not stated),i,0.02
O=C(NCC(c1cccs1)N1CCOCC1)c1cc(-c2ccccn2)nc2ccccc12 (configuration not stated),i,-2
Cc1ccnc(NC(=O)CN(C)S(=O)(=O)c2cccc3nsnc23)c1,i,0.06
COc1ccc(NC(=O)C2C(c3ccccc3)C2(Cl)Cl)cc1 (configuration not stated),i,0.76
COc1cc(/C=N/NC(=O)c2cc3c(ccc4ccccc43)o2)cc(OC)c1O,i,0.89
CC1CCCCN1C(=S)Nc1ccc2nc3n(c(=O)c2c1)CCCCC3 (configuration not stated),i,-0.56
CN1C(CC(=O)c2ccccc2)CCCC1CC(O)c1ccccc1 (configuration not stated),i,0.09
C/C(=N\NC(=O)CNc1cccc(Cl)c1C)c1cccs1,i,0.68
CNC(=O)CN1C(=O)COc2ccc(S(=O)(=O)N3CCCCCC3)cc21,i,1.5

# One compound at a time, from the list above. Order of screens: KCNQ2 inh	KCNQ2 inh baseline
# Oc1c(Br)cc(Br)cc1CNc1nccs1 is listed as i	-0.44
# CC(C)(C)NC(=O)N1CCn2cccc2C1c1ccccc1F (configuration not stated) is listed as i	1.3
# O=C(CN1C(=O)S/C(=C\c2ccc(F)cc2)C1=O)NC1C=CS(=O)(=O)C1 (configuration not stated) is listed as i	-0.01
# CNC(=O)CN1C(=O)COc2ccc(S(=O)(=O)N3CCCCCC3)cc21 is listed as i	1.5
# CCSC(=Nc1ccccc1)Nc1ccccc1 is listed as i	3.8

# Following part:
SMILES,KCNQ2 inh,KCNQ2 inh baseline
Cc1nn(-c2ccccc2)c2nc(-c3cccs3)cc(C(=O)NN)c12,i,-0.78
C=C1CCN([C@@H](CC(C)C)C(=O)NCCCc2ccccc2)S(=O)(=O)c2ccccc21,i,0.62
O=C(NCCC(=O)N1CCNC1=O)OCc1ccccc1,i,1.6
Cn1c(=O)c2c([nH]c(=S)n2CCCc2ccccc2)n(C)c1=O,i,-1.3
Cc1cc(NC(=O)CSc2ncnc3sc(C)c(C)c23)no1,i,-1.1
CCOC(=O)c1c(S(=O)(=O)NCC(=O)Nc2cccc(F)c2)c(C)n(C)c1C,i,1.7
COC(=O)c1ccccc1NC(=O)CSc1nnc(-c2ccoc2C)n1C,i,-1.3
O=C(Nc1cccc(Cl)c1)c1cccnn1,i,0.17
S=C1NC(c2ccccc2)=NCN1c1ccc(Br)cc1,i,1.4
CC(C)[C@H](N)C(=O)OCCOCn1cnc2c(=O)[nH]c(N)nc21,i,-1.7
Cc1cc(NC(=O)CN2CCCC2c2nc3ccccc3s2)no1 (configuration not stated),i,1.6
Cc1ccnc(NC(=O)c2cccc(S(=O)(=O)NCc3ccccc3)c2)c1,i,0.39
CC1(C)Cc2c(cnn2-c2ccccc2)C(NC(=O)CCCN2CCCCC2=O)C1 (configuration not stated),i,-0.23
Cc1nnc(SC(C)C(=O)Nc2ccc(S(=O)(=O)N3CCCCC3)cc2)s1 (configuration not stated),i,-1.2
CCC(=O)c1cn([C@@H](CCC(OC)OC)CC(=O)OC(C)(C)C)cc1CC,i,0.49
O=c1[nH]nc(SCCS(=O)(=O)c2ccc(F)cc2)n1-c1ccccc1,i,1.2
N#Cc1ccc(C(=O)OCC(=O)Nc2ccc(N3CCOCC3)cc2)cc1,i,0.51
O=C(Nc1nccs1)c1cc(-c2ccccn2)nc2c(Cl)cccc12,i,1.7
COc1ccc(OC)c(CC(=O)NC(c2ccccc2)c2ccccc2)c1,i,0.64
NC(=O)c1cc(Cc2ccccc2)sc1NC(=O)c1ccco1,i,-0.25
Cc1ccc(-c2nnc(SCC#CCOC(=O)c3cccs3)o2)cc1,i,1.4
COc1ccc(-n2ncc(N(C)n3cccc3)c(Cl)c2=O)cc1,i,0.85
